NS1 inh: blocks influenza NS1 protein function; S. cerevisiae slowed by influenza A NS1, growth recovery by OD600; Potency, µM (doses to about 46.1 µM), inactives show at the top dose activity, positive = more growth; hit rate 0.4% among 270,000; active means well fitted rising curve with a large enough effect; inconclusive means small, poorly fitted or top-dose-only effect; inactive means no such curve, though single readings can be large or run the other way; note: nearly all actives have a fitted effect of over 50% in size
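Read-out: OD600 growth recovery of NS1-expressing budding yeast. Cells grown overnight at 30C in -URA glucose medium, washed, resuspended and diluted 1:100 in 2% galactose assay medium, pH 6.0. Same strain lacking NS1 served as positive control.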
Lassa entry inh: inhibitors of Lassa virus binding or cell entry; hit rate 1.2% among 300,000; Potency, µM (titrated, usually from 37.9 µM), for inactives: at the highest dose activity change, negative = inhibition, hits mostly inhibitors; Lassa virus pseudotype entry inhibition, cell reporter; control for the full effect not named in the record; active means well fitted inhibition curve with a large enough effect; inconclusive means small, poorly fitted or top-dose-only effect, or effect the other way; inactive means flat fitted curve, though single readings scatter; tested in HEK293 cells; note: % is set by controls: 0 for no effect and ±100 for the full control effect; nearly all actives have a fitted effect of over 50% in size; luciferase read-out
MARV entry inh: Marburg virus entry inhibition; Marburg virus pseudotyped entry inhibition, cell reporter; control for the full effect not named in the record; about a third of the inactives were read at about 46 µM; Potency, µM (top dose mostly 37.8 µM), for the others: top-dose activity change, negative = inhibition, usual class: inhibitors; hit rate 1.8% among 300,000; active = well fitted inhibition curve with a large enough effect; inconclusive = small, poorly fitted or top-dose-only effect, or effect the other way; inactive = flat fitted curve, though single readings scatter; tested in HEK293 cells; about a fifth of its hits are not listed in these tables; note: % is set by controls: 0 for no effect and ±100 for the full control effect; luciferase read-out
StopGo reporter: lowers the luciferase signal of an FMDV 2A StopGo reporter; human cells with a luciferase reporter of 2A StopGo recoding; control for the full effect not named in the record; hit rate 1.2% among 410,000; Potency, µM (highest dose often 57.9 µM), inactives show at the highest dose signal change, negative = less light; active = well fitted falling curve with a large enough effect; inconclusive = small, poorly fitted or top-dose-only effect; inactive = no such curve, though single readings can be large or run the other way; tested in HEK293T cells; note: % is set by controls: 0 for no effect and ±100 for the full control effect; nearly all actives have a fitted effect of over 45% in size; luciferase light after 4 h
Cruzain noTriton: cruzain (T. cruzi) inhibition without detergent; P25779; purified cruzain, Z-FR-AMC fluorescence, no detergent; Potency, µM, for inactives: max response, negative = inhibition, usual class: inhibitors; hit rate 2.3% among 200,000; AID 1476;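 note: plate controls were enzyme without inhibitor for no effect and buffer without enzyme for full effect; nearly all actives have a fitted effect of over 40% in size; top concentration of the series not given in the record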
Target sequence (P25779 123-467 limits assumed): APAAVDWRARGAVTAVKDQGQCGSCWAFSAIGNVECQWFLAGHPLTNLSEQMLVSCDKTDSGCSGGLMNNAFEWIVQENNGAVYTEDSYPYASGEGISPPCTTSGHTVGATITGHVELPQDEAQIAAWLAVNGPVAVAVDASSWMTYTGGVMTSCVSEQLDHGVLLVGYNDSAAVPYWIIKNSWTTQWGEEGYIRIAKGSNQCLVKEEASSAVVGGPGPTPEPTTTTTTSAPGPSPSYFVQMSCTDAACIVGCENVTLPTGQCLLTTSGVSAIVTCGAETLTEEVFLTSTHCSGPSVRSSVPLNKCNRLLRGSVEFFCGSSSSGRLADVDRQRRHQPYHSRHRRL
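Detergent-free condition (0.00005% Triton X-100) in acetate buffer pH 5.5 with DTT. 1.5 nM enzyme and compound were pre-mixed 15 min, then 2 uM Z-FR-AMC substrate added; reaction progress from fluorescence change between first and third reads (60 s).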
RE007 growth inh: less growth of the S. pombe RE007 Vpr strain. hit rate 0.21% among 360,000. S. pombe RE007 Vpr strain, BacTiter-Glo ATP luminescence, 24 h; control for the full effect not named in the record. AID 651644. Potency, µM (highest dose often 92.2 µM), inactives show at the top dose activity change, negative = less growth; active = well fitted falling curve with a large enough effect; inconclusive = small, poorly fitted or top-dose-only effect; inactive = no such curve, though single readings can be large or run the other way;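 note: % is set by controls: 0 for no effect and ±100 for the full control effect; nearly all actives have a fitted effect of over 50% in size; the assay follows cell death caused by Vpr and the record does not say whether a fall means rescue or toxicity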
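Fission yeast strain RE007, carrying one chromosomally integrated HIV-1 vpr copy, was seeded at OD 0.01 in PMG+AL medium with 23 nL pinned compound. After 24 h at 30 °C and 99% humidity, viability was read by BacTiter-Glo luminescence.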
Cruzain Triton: blocks cruzain activity in presence of Triton detergent; hit rate 0.43% among 200,000; Potency, µM, inactives show max response, negative = inhibition, hits mostly inhibitors; P25779; purified cruzain, Z-FR-AMC fluorescence, 0.01% Triton;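 note: plate controls were neutral wells for no effect and buffer without enzyme for full effect; nearly all actives have a fitted effect of over 40% in size; top concentration of the series not given in the record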
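Enzyme 1.5 nM, Z-FR-AMC 2 uM, NaOAc 100 mM pH 5.5, DTT 5 mM, Triton X-100 0.01%; 15 min RT compound preincubation; kinetic ex360/em450, 60 s delta.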
SARS PLP yeast: inhibitors of SARS-CoV papain-like protease in yeast | S. cerevisiae expressing SARS-CoV PLpro, growth rescue; control for the full effect not named in the record | Potency, µM (highest dose often 32.9 µM), without a hit: at the highest dose activity, positive = growth rescue | hit rate 0.19% among 330,000; active means well fitted rising curve with a large enough effect; inconclusive means small, poorly fitted or top-dose-only effect; inactive means no such curve, though single readings can be large or run the other way; note: 0% is about no effect; nearly all actives have a fitted effect of over 55% in size; growth read by luminescence after 48 h
* marks the source's active call; other numbers are inactive results; ? = inconclusive; . = no result given; & = joins results of further samples; [ ] = remark or other dose. Unless noted, calls come from the whole dose curve; as a rule, active = well fitted curve in the direction sought with a large enough effect; inconclusive = small, poorly fitted or top-dose-only effect, or another doubt; inactive = no such curve, though single readings can be large; an effect the other way counts as inactive or inconclusive. Potency is the fitted concentration of half-maximal effect.

The first 4 entries, to show the layout:
SMILES	NS1 inh	Lassa entry inh	MARV entry inh	StopGo reporter	Cruzain noTriton	RE007 growth inh	Cruzain Triton	SARS PLP yeast
CCOC(=O)COc1ccc(C2NC(C(=O)O)CS2)cc1 (centres undefined)	-14%	0%	6%	-7%	-2%	-8%	1.9%	-18%
Cc1c(C(=O)N(Cc2cccs2)C2CCS(=O)(=O)C2)oc2ccccc12 (centres undefined)	-16%	?	-11%	?	-1%	3%	-3.3%	0%
O=C(Oc1cc(-c2ccccc2)no1)c1ccc(F)cc1	-9%	-2%	-1%	-23%	10%	-25%	5.0%	0%
COc1cc(N)cc(NC(=O)c2ccncc2)c1	-1%	1%	-1%	5%	19%	1%	7.2%	-1%

The whole of this part, from the first entry:
SMILES	NS1 inh	Lassa entry inh	MARV entry inh	StopGo reporter	Cruzain noTriton	RE007 growth inh	Cruzain Triton	SARS PLP yeast
CCOC(=O)COc1ccc(C2NC(C(=O)O)CS2)cc1 (centres undefined)	-14%	0%	6%	-7%	-2%	-8%	1.9%	-18%
Cc1c(C(=O)N(Cc2cccs2)C2CCS(=O)(=O)C2)oc2ccccc12 (centres undefined)	-16%	?	-11%	?	-1%	3%	-3.3%	0%
O=C(Oc1cc(-c2ccccc2)no1)c1ccc(F)cc1	-9%	-2%	-1%	-23%	10%	-25%	5.0%	0%
COc1cc(N)cc(NC(=O)c2ccncc2)c1	-1%	1%	-1%	5%	19%	1%	7.2%	-1%
CC(C)c1ccc(NC(=O)C2=NNC(=O)CC2)cc1	-2%	-23%	?	62%[activator]	.	19%	.	0%
CCCSCCCNC(=O)c1cc2c(s1)CS(=O)(=O)C2	-1%	?	5%	.	0%	3%	6.0%	5%
O=C(Nc1ccccc1)c1ccc(NCCN2CCOCC2)c(S(=O)(=O)N2CCOCC2)c1	-20%	?	13%&13%	-3%	-12%	4%	0.2%	0%
COc1ccccc1N(CC(=O)NCC1CCCO1)C(=O)CCC(=O)Nc1nccs1 (centres undefined)	3%	-25%	-11%[46.1 µM]	-3%	4%	4%	1.1%	18%
COc1cc(-c2nc(S(=O)(=O)c3ccc(Br)cc3)c(N3CCOCC3)o2)cc(OC)c1OC	.	?	.	-1%	?	.	0.0%	.
Cc1cc(C)c(S(=O)(=O)Nc2ccc(-c3ccc(N4CCCCCC4)nn3)cc2)c(C)c1	.	-12%[46.1 µM]	.	40%[activator]	?	.	-4.8%	.
NC(=O)c1sc2nc(-c3cccs3)ccc2c1N	1%	.	.	13%	.	-17%	.	-4%
O=C(c1cc2cc(C(F)(F)F)ccc2s1)N1CCOCC1	.	5%	-2%[46.1 µM]	-3%	.	-5%	.	-3%
N=C1c2ccccc2CN1c1ccc(F)c([N+](=O)[O-])c1	-2%	-23%	-5%[46.1 µM]	-23%	.	-19%	.	0%
Cn1c(=O)c2c(nc(NCC3CCCO3)n2Cc2ccccc2)n(C)c1=O (centres undefined)	6%	-14%	7%	-4%	-4%	10%	-0.6%	27%
Cc1cccc(Nc2nc(N)nc(-c3oc4ccccc4c3C)n2)c1	4%	?	?	21%	.	-19%	.	-3%
COc1ccc(C2C(C(=O)O)c3ccccc3C(=O)N2Cc2ccco2)cc1 (centres undefined)	2%	14%	15%[46.1 µM]	11%	.	14%	.	1%
Cc1nn(Cc2ccccc2)c(Cl)c1C(=O)Nc1ccc(OC(F)(F)F)cc1	-4%	-22%	-1%	-26%	5%	-5%	-4.5%	-14%
CC1(C)CC(=O)C(C(c2ccc(Br)cc2)C2C(=O)CC(C)(C)CC2=O)C(=O)C1	-7%	-3%[46.1 µM]	-4%[46.1 µM]	6%	.	-11%	.	-2%
Cc1cccn2c(=O)c3cc(C(=O)NCCCn4ccnc4)n(C)c3nc12	-3%	-9%	?	-16%	-6%	-17%	-10%	2%
CCC(C)c1ccc(NC(=O)N2CCN(C(=O)C3CCCO3)CC2)cc1 (centres undefined)	-7%	-18%	21%	-8%	.	-5%	.	0%
Nc1c(-c2ccccc2)c(CSc2nc3ccccc3[nH]2)nn1-c1cccc(C(=O)O)c1	6%	-4%[46.1 µM]	16%[46.1 µM]	-6%	.	7%	.	-1%
Nc1nc(SCc2ccccn2)c2ncn(C3CCCC3)c2n1	-7%	-26%[46.1 µM]	?	27%	-3%	11%	3.5%	.
O=C1c2sc3nc4n(c(=O)c3c2CCC1Br)CCCCC4 (centres undefined)	-25%	-24%	-8%	-41%	-21%	2%	-3.0%	-15%
CN(C)C1(CNC(=O)COc2ccc(C(C)(C)C)cc2)CCCCC1	.	-7%[46.1 µM]	?	-8%	2%	.	0.3%	.
NS(=O)(=O)c1cccc(NC(=O)CSc2nnc(-c3ccccc3)o2)c1	.	4%[46.1 µM]	0%	10%	.	0%	.	6%
O=C(c1ccc([N+](=O)[O-])s1)N1CCc2ccccc21	2%	8%	12%[46.1 µM]	9%	.	-3%	.	0%
O=C(Nc1ccc(Cl)cc1)c1ccc2c(=O)n3c(nc2c1)CCCCC3	9%	.	.	0%	.	7%	.	6%
CCN(C(=O)COC(=O)c1ccc(C)c(S(=O)(=O)N2CCOCC2)c1)C1CCS(=O)(=O)C1 (centres undefined)	.	0%	6%	-3%	.	-4%	.	-4%
CC[C@]12c3[nH]c4ccc(Cl)cc4c3CCN1C(=O)[C@@H](CC(=O)NCCc1ccccn1)C[C@@H]2C(=O)N1CCN(C(=O)C2CC2)CC1	.	.	-1%	-12%	.	-1%	.	14%
O=C(CSc1nnc(Cc2cc(=O)[nH]c(=O)[nH]2)n1-c1ccccc1)NCC1CCCO1 (centres undefined)	8%	8%	5%	-7%	-6%	20%	7.1%	5%
CCCCn1c(=O)[nH]c(=O)c2c1nc(-c1ccc(C)c([N+](=O)[O-])c1)n2CC	-14%	?	?	-22%	.	1%	.	-3%
O=C(Nc1nccs1)c1cc([N+](=O)[O-])ccc1Cl	9%	.	.	-19%	.	0%	.	-8%
CCn1nc(C(=O)Nc2cccc(C(F)(F)F)c2)c(Cl)c1Cl	-11%	?	2%	-13%	10%	-9%	10%	-3%
NC(N)=NC(N)=Nc1ccc(SC(F)(F)F)cc1	-9%	1%	?	-2%	-8%	0%	-0.1%	6%
C/C(=N\Nc1nncc2ccccc12)c1ccc(C(C)(C)C)cc1	0%	?	?	62%[activator]	.	16%	.	8%
Cc1ccc(N2CC(C(=O)Nc3c(C)n(C)n(-c4ccccc4)c3=O)CC2=O)cc1 (centres undefined)	.	0%[46.1 µM]	7%[46.1 µM]	-8%	.	8%	.	0%
C/C(=N\NC(=O)C(O)c1ccccc1)c1ccc(Cl)s1 (centres undefined)	-17%	.	.	86%[activator]	.	10%	.	-2%
O=C(NCCN1CCOCC1)C1CCN(c2ncnc3c2sc2cccc(F)c23)CC1	-2%	.	.	?	-29%	0%	-15%	-1%
CN(Cc1nc(Cc2cccc(C(F)(F)F)c2)no1)C1CC(C)(C)NC(C)(C)C1	-1%	14%[46.1 µM]	?	-5%	.	8%	.	0%
CCc1cccc(C)c1NC(=O)c1cnn(-c2ccc(OC)cc2)c1C1CCN(C(=O)OC(C)(C)C)CC1	.	.	.	14%	?	.	-5.9%	.
CCOc1ccccc1CN1CCC(n2nccc2NC(=O)CCc2ccccc2)CC1	6%	.	.	-5%	.	10%	.	3%
CC(=O)c1ccc(Nc2nc(C)nc3c2oc2ccccc23)cc1	0%	.	-10%	.	-8%	.	-1.8%	-6%
Cc1ccsc1CNCC(O)c1ccccc1 (centres undefined)	6%	2%[46.1 µM]	8%[46.1 µM]	-10%	.	-3%	.	4%
Cc1cc(=O)[nH]c(-n2[nH]c(C)cc2=O)n1	14%	27%	24%[46.1 µM]	19%	-2%	9%	1.6%	-4%
Cc1ccc(-n2nc(CO)c(C(=O)NCCc3ccccc3)n2)cc1	.	8%[46.1 µM]	-14%[46.1 µM]	-1%	-11%	.	1.2%	.
COc1cc(NC(=S)NCc2ccco2)cc(OC)c1OC	-9%	12%	14%	27%	2%	13%	1.1%	1%
Cc1cc(=O)oc2cc(OC(C)C(=O)NCCc3ccc(S(N)(=O)=O)cc3)ccc12 (centres undefined)	-14%	.	.	4%	.	-1%	.	6%
Cc1ccc(SCCNC(=O)CN(c2ccc3c(c2)OCO3)S(C)(=O)=O)cc1	2%	?	-5%	0%	5%	-15%	-2.3%	-2%
O=C(Cc1c(F)cccc1Cl)Nc1cccnc1	2%	17%	3%	.	2%	-3%	3.4%	1%
Cc1cnc(C(=O)OCc2ccc(C#N)cc2)cn1	7%	-2%	-2%[46.1 µM]	-4%	.	-1%	.	-7%
CN1CCN(C(=O)C23CC4CC(CC(C4)C2)C3)CC1	5%	12%	11%	-1%	-7%	4%	-1.5%	3%
Cc1cc(C)nc(SSc2nc(C)cc(C)n2)n1	-27%	?	16%[46.1 µM]	-9%	.	3%	.	-20%
COc1cccc(OC)c1C(=O)OCC(=O)N(C)c1ccccc1	3%	2%	-10%[46.1 µM]	-3%	.	-2%	.	-5%
O=C(O)c1ccc2c(=O)n3c(nc2c1)/C(=C/c1ccc(OC(F)F)cc1OC(F)F)CC3	2%	-19%[46.1 µM]	15%[46.1 µM]	-10%	.	-9%	.	2%
COc1ccc(C2=NN(C(=O)c3cccnc3)C(c3ccccc3)C2)cc1 (centres undefined)	-9%	?	?	0%	8%	-2%	-9.6%	?
O=C(CCN1C(=O)/C(=C\c2cccs2)SC1=S)Nc1ccc(C(=O)O)cc1	7%	.	.	-9%	.	14%	.	16%
c1ccc2oc(-c3ccc4nc[nH]c4c3)nc2c1	-14%	0%	?	-13%	2%	-19%	-5.8%	-32%
